Screening results as filed in PubChem BioAssay.
HIV Env fusion: inhibitors of HIV Env-mediated cell fusion. HeLa-JRFL Env/CEM21 cell fusion, luciferase. inhibition, % at 12.3 µM. 360,000 tested, 1.1% active;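 active = mean replicate inhibition score of at least 50 and every replicate individually at or above 50; inconclusive = only one of the two criteria met; inactive = mean below 50 and not all replicates reaching 50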;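 note: 0% = plate neutral controls and 100% = maraviroc near 300 nM; one replicate is shown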
PABP FP inh: blocks human PABP binding to poly(A) RNA | P11940 | 290,000 tested, 1% active | fluorescence polarization | AID 2014 | inhibition, % at 35 µM;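 active = 50% or more with normal probe brightness, or confirmed in later tests; inconclusive = above 50% with abnormal brightness, or retests that disagree; inactive = below 50% or failed in later tests; about a fifth of its hits are not listed in these tables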;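 note: calls also rest on retests at 20 µM and on dose response follow-up; controls were probe without protein and protein plus probe with vehicle; some compounds called inactive have numbers as strong as hits; many hits fall short of the cut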
Target sequence (P11940 whole entry, looked up): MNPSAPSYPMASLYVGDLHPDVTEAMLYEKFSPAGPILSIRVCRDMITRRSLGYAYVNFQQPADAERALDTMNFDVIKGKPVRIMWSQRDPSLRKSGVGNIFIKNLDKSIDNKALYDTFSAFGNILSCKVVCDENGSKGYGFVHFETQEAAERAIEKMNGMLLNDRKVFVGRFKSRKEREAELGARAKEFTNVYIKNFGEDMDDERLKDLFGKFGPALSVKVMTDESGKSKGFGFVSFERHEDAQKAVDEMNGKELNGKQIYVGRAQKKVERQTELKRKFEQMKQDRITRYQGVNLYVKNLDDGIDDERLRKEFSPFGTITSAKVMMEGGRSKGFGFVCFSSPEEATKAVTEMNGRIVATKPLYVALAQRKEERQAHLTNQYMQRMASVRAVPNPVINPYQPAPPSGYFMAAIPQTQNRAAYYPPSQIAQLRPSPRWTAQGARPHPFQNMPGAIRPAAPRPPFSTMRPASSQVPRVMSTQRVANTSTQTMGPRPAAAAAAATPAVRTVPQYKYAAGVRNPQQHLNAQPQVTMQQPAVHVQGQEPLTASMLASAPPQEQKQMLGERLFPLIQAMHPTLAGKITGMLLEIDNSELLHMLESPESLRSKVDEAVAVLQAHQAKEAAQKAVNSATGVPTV
CSC inhib: cancer stem cell inhibition. cancer stem cell-like cells viability, luminescence. inhibition, % at 7.5 µM. 300,000 tested, 1.1% active. AID 2717;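 active = mean at 75% or more and at least half the replicates too; inconclusive = mean and replicates disagree; tested in HMLE shEcad cells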;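 note: 0% = median of negative and 100% = median of positive control wells; the first replicate is given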
UUG fidelity: yeast start codon fidelity modulation. S. cerevisiae UUG-firefly luciferase reporter, luminescence/redox ratio. activity score, % at 18.7 µM. 350,000 tested, 0.13% active;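 active = replicate mean at a twofold rise or more, about +100% in these data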;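 note: firefly luciferase made from a UUG start codon reports start codon fidelity; reporter light over untreated wells divided by growth signal over untreated wells; some hits fall short of that in this replicate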
MT1-MMP act inh: blocks activation of human MT1-MMP; P50281; HT1080 RFP-PRO-GFP cells, GFP/RFP ratio fluorescence, overnight; percent of plate control window, DMSO zero; GFP/RFP ratio change, % at 20 µM; 360,000 tested, 0.061% active;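 active = GFP/RFP ratio change of at least 30% with cell ATP level not reduced by more than half and red fluorescence within 50% of control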; note: strong numbers were not always called active
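Material – HT1080 RFP-PRO-GFP cells · Control set – DMSO wells and RFP-L50D-GFP cells · Incubation – overnight cell settling, then overnight compound exposure, 37 °C, 5% CO2 · Compound dosing – single-point 20 µM compound, 1% DMSO · Read-out – GFP/RFP fluorescence ratio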
Rce1 inhib: blocks yeast Ras-converting enzyme. yeast membranes, quenched prenylated peptide cleavage fluorescence. calls only. 290,000 tested, 0.27% active. AID 2563;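 active = fall in fluorescence gain of 50% or more versus controls, with final raw signal at or below 3038400; inconclusive = same 50% fall but final raw signal above 3038400; inactive = fall in fluorescence gain under 50%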;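 note: plate controls were neutral control wells for no effect and wells lacking membranes for full effect; tested at 10 µM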
Target sequence (Q03530 whole entry, looked up): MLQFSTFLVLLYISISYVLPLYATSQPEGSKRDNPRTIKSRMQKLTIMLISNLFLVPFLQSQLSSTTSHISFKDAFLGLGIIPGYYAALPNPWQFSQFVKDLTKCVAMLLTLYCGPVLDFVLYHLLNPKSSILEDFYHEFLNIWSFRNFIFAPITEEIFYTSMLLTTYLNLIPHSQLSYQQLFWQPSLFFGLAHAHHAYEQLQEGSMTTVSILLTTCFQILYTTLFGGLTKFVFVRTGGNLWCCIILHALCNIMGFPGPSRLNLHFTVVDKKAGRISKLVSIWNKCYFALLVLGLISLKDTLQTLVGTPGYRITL
eIF4H FP inh: inhibitors of RNA binding by human eIF4H | Q15056 | eIF4H fluorescence polarization binding assay | 290,000 tested, 0.94% active | inhibition, % at 35 µM;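 active = 50% or more with normal probe brightness, or confirmed in later tests; inconclusive = above 50% with abnormal brightness, or retests that disagree; inactive = below 50% or failed in later tests; about a fifth of its hits are not listed in these tables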;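 note: calls also rest on retests at 20 µM and on dose response follow-up; 0% = protein and probe with vehicle and 100% = probe without protein; strong numbers were not always called active; many hits fall short of the cut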
MT1-MMP act inh RFP: second read-out of MT1-MMP act inh, no call of its own (marks repeat the call); RFP signal change, %; measured here: RFP expression control read;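 0 = vehicle wells; hits needed this value within 50% of zero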
The depositor's hits bear a star.

How did c1cncc(-c2noc(-c3ccc4ccccc4c3)n2)c1 do in these assays?
HIV Env fusion: -181; PABP FP inh: 6; CSC inhib: -9; UUG fidelity: -12; MT1-MMP act inh: 2; Rce1 inhib: inactive; eIF4H FP inh: -5; MT1-MMP act inh RFP: 1

Results for Cn1cnnc1SCC(=O)N(Cc1ccc2c(c1)OCO2)C1(C(=O)NC2CCCCC2)CCCC1 ?
HIV Env fusion: -64; PABP FP inh: -4; CSC inhib: -3; MT1-MMP act inh: -5; Rce1 inhib: inactive; eIF4H FP inh: -1; MT1-MMP act inh RFP: 1

Results for Cc1cc2oc(=O)cc(C)c2cc1NC(=O)CCl ?
HIV Env fusion: -122; PABP FP inh: 16; CSC inhib: 27; UUG fidelity: -18; MT1-MMP act inh: 1; Rce1 inhib: inactive; eIF4H FP inh: -7; MT1-MMP act inh RFP: -2

Results for O=[N+]([O-])c1cc(/C=N/O)ccc1Sc1ccccc1 ?
PABP FP inh: 0; CSC inhib: 30; UUG fidelity: -4; MT1-MMP act inh: -5; Rce1 inhib: inactive; eIF4H FP inh: 0; MT1-MMP act inh RFP: -8

Results for CCN(CC)S(=O)(=O)c1ccc(N2CCOCC2)c(NC(=O)c2cc(C)cc(C)c2)c1 ?
HIV Env fusion: 15; PABP FP inh: 7; CSC inhib: 2; UUG fidelity: 8; MT1-MMP act inh: -3; Rce1 inhib: inactive; eIF4H FP inh: 12; MT1-MMP act inh RFP: -6

Results for CC(C)NC(=O)C1(C)CCCN1C(=O)c1cc(C#N)cs1 (centres undefined) ?
HIV Env fusion: 6; UUG fidelity: -18; MT1-MMP act inh: 1; MT1-MMP act inh RFP: 4

How did CC(=O)Nc1nnc(-c2ccccn2)o1 do in these assays?
HIV Env fusion: -3; PABP FP inh: -7; CSC inhib: -7; MT1-MMP act inh: 3; Rce1 inhib: inactive; eIF4H FP inh: 3; MT1-MMP act inh RFP: 4

Results for Cn1c(Cn2nnc3ccccc32)nnc1SCC(=O)NCc1ccc2c(c1)OCO2 ?
PABP FP inh: -5; UUG fidelity: -8; MT1-MMP act inh: -1; Rce1 inhib: inactive; eIF4H FP inh: -6; MT1-MMP act inh RFP: -3

What do the screens show for `CCCN1C(=S)c2ccccc2C1c1ccccc1` (centres undefined)?
HIV Env fusion: -5; PABP FP inh: 0; CSC inhib: 0; UUG fidelity: -15; MT1-MMP act inh: -7; Rce1 inhib: inactive; eIF4H FP inh: 6; MT1-MMP act inh RFP: 2

Results for CC(C)C(NS(=O)(=O)c1cccs1)C(=O)NCCCN1CCCCCC1 (centres undefined) ?
HIV Env fusion: -1; PABP FP inh: 3; CSC inhib: -29; UUG fidelity: -1; MT1-MMP act inh: 1; Rce1 inhib: inactive; eIF4H FP inh: 5; MT1-MMP act inh RFP: 3

How did COc1cc2cc(CN(Cc3cccs3)C(=S)Nc3ccc(C)cc3)c(=O)[nH]c2cc1OC do in these assays?
HIV Env fusion: -13; PABP FP inh: -6; CSC inhib: 14; MT1-MMP act inh: -11; Rce1 inhib: inactive; eIF4H FP inh: 5; MT1-MMP act inh RFP: -14

Results for COc1ccccc1CCc1nnc(CCC(=O)NCC2CCCO2)o1 (centres undefined) ?
HIV Env fusion: 4; PABP FP inh: -8; CSC inhib: -3; UUG fidelity: -1; MT1-MMP act inh: -1; Rce1 inhib: inactive; eIF4H FP inh: -11; MT1-MMP act inh RFP: 4

Results for S=c1[nH]nc(COc2ccccc2)n1/N=C/C=C/c1ccco1 ?
HIV Env fusion: -29; PABP FP inh: 68*; CSC inhib: 1; UUG fidelity: -15; MT1-MMP act inh: 4; Rce1 inhib: inactive; eIF4H FP inh: 81*; MT1-MMP act inh RFP: 2

How did O=[N+]([O-])c1nccn1CCCCCCCCCCCN1CCOCC1 do in these assays?
HIV Env fusion: 0; UUG fidelity: -9; MT1-MMP act inh: 6; MT1-MMP act inh RFP: -2

How did O=C(CCCn1c(SCC(=O)Nc2ccccc2Cl)nc2ccccc2c1=O)NCC1CCCO1 (centres undefined) do in these assays?
HIV Env fusion: 6; PABP FP inh: 6; CSC inhib: 3; UUG fidelity: -3; MT1-MMP act inh: -7; Rce1 inhib: inactive; eIF4H FP inh: -2; MT1-MMP act inh RFP: -3

What do the screens show for `COC(=O)C1=C(C)OC(N)=C(C#N)C1c1ccc(OC)c(OC)c1OC` (centres undefined)?
HIV Env fusion: -3; PABP FP inh: 21; CSC inhib: -4; UUG fidelity: -8; MT1-MMP act inh: -4; Rce1 inhib: inactive; eIF4H FP inh: 17; MT1-MMP act inh RFP: -7

What do the screens show for `CS(=O)(=O)c1ccccc1C(=O)NCCC(c1ccccc1)c1ccccc1`?
HIV Env fusion: -5; PABP FP inh: 11; UUG fidelity: 5; MT1-MMP act inh: -6; Rce1 inhib: inactive; eIF4H FP inh: -6; MT1-MMP act inh RFP: 0

What do the screens show for `O=S(=O)(Nc1ccc(Cc2ccncc2)cc1)N1CCCC1`?
HIV Env fusion: -8; PABP FP inh: -5; CSC inhib: -10; UUG fidelity: -17; MT1-MMP act inh: -6; Rce1 inhib: inactive; eIF4H FP inh: 6; MT1-MMP act inh RFP: -4

How did COc1ccc(CCNC(=O)c2c(C)nn(CC(C)C)c2Cl)cc1 do in these assays?
HIV Env fusion: 10; PABP FP inh: -2; CSC inhib: -2; UUG fidelity: -6; MT1-MMP act inh: 5; Rce1 inhib: inactive; eIF4H FP inh: -4; MT1-MMP act inh RFP: 1

How did COc1ccc(CNC(=O)[C@H](C)[C@@H]2C[C@@]2(C)[C@@H](NC(=O)OCc2ccccc2)c2ccccc2)cc1OC do in these assays?
HIV Env fusion: -9; PABP FP inh: -4; CSC inhib: -11; Rce1 inhib: inactive; eIF4H FP inh: -11

What do the screens show for `CC1(C)CC(=O)C(=C2SCCCS2)C(=O)C1`?
HIV Env fusion: -15; PABP FP inh: 1; CSC inhib: -10; UUG fidelity: -16; MT1-MMP act inh: 0; Rce1 inhib: inactive; eIF4H FP inh: 0; MT1-MMP act inh RFP: 4

Results for COC(=O)C1CC(=O)N(CCc2c[nH]c3ccccc23)C1 (centres undefined) ?
PABP FP inh: 3; UUG fidelity: -12; MT1-MMP act inh: 1; Rce1 inhib: inactive; eIF4H FP inh: -7; MT1-MMP act inh RFP: 2

What do the screens show for `CCCNC(=O)C(NS(=O)(=O)c1ccc2c(c1)c(=O)n(C)c(=O)n2C)c1ccccc1` (centres undefined)?
HIV Env fusion: -33; PABP FP inh: 0; CSC inhib: 1; UUG fidelity: -35; MT1-MMP act inh: -1; Rce1 inhib: inactive; eIF4H FP inh: -1; MT1-MMP act inh RFP: 2

How did COc1cc(/C=N/NC(=O)c2cccnc2)ccc1OCC(=O)Nc1c(C)cc(C)cc1C do in these assays?
HIV Env fusion: 3; PABP FP inh: 0; CSC inhib: -13; UUG fidelity: -4; MT1-MMP act inh: 1; Rce1 inhib: inactive; eIF4H FP inh: 36; MT1-MMP act inh RFP: 0

Results for O=C(NC1CCCCC1)c1cc2nc(-c3ccco3)cc(C(F)(F)F)n2n1 ?
PABP FP inh: 5; UUG fidelity: 1; MT1-MMP act inh: 0; Rce1 inhib: inactive; eIF4H FP inh: 9; MT1-MMP act inh RFP: -3

Results for O=C(Nc1ccccc1C(=O)O)c1ccc(NC(=O)c2ccc(Br)o2)cc1 ?
PABP FP inh: 37; CSC inhib: 2; MT1-MMP act inh: 4; Rce1 inhib: inactive; eIF4H FP inh: 0; MT1-MMP act inh RFP: 2

How did O=C(NCc1ccc(F)cc1)C(c1ccco1)N(C(=O)c1csnn1)C1CC1 (centres undefined) do in these assays?
HIV Env fusion: 8; PABP FP inh: 1; CSC inhib: -7; UUG fidelity: -4; MT1-MMP act inh: 4; eIF4H FP inh: -7; MT1-MMP act inh RFP: 7

What do the screens show for `O=C(Cn1cnc2ccccc21)N/N=C/c1ccccn1`?
PABP FP inh: -5; CSC inhib: -1; UUG fidelity: -15; MT1-MMP act inh: 2; Rce1 inhib: inactive; eIF4H FP inh: -2; MT1-MMP act inh RFP: 5

Results for NC(=O)c1cccnc1Sc1ccc(Cl)cc1 ?
HIV Env fusion: -1; PABP FP inh: 2; CSC inhib: -8; UUG fidelity: -18; MT1-MMP act inh: 1; Rce1 inhib: inactive; eIF4H FP inh: 4; MT1-MMP act inh RFP: 4

Results for O=C(CCN1N=C(c2ccccc2)CCC1=O)NCCCN1CCOCC1 ?
HIV Env fusion: 1; PABP FP inh: 2; CSC inhib: -16; UUG fidelity: 9; MT1-MMP act inh: 3; Rce1 inhib: inactive; eIF4H FP inh: -2; MT1-MMP act inh RFP: 4

How did CC(c1cccnc1)N(CCN(C)C)C(=O)Nc1ccc(Cl)cc1 (centres undefined) do in these assays?
HIV Env fusion: 15; PABP FP inh: -6; CSC inhib: -2; UUG fidelity: -14; MT1-MMP act inh: -1; Rce1 inhib: inactive; eIF4H FP inh: -5; MT1-MMP act inh RFP: -4

How did CSCCNCc1cn(-c2ccc(F)cc2F)nc1-c1ccccc1C do in these assays?
HIV Env fusion: 23; PABP FP inh: -24; CSC inhib: 7; UUG fidelity: -5; MT1-MMP act inh: 3; Rce1 inhib: inactive; eIF4H FP inh: 2; MT1-MMP act inh RFP: 4

Results for S=C(Nc1ccc(Oc2ccccc2)cc1)Nc1cccnc1 ?
HIV Env fusion: -38; PABP FP inh: 7; CSC inhib: -3; UUG fidelity: 19; MT1-MMP act inh: 0; Rce1 inhib: inactive; eIF4H FP inh: 2; MT1-MMP act inh RFP: -3

What do the screens show for `CCc1noc(C)c1C(=O)NCCc1ccccc1`?
HIV Env fusion: -27; CSC inhib: -9; UUG fidelity: -1; MT1-MMP act inh: -1; Rce1 inhib: inactive; MT1-MMP act inh RFP: 2

How did CN(Cc1ccc(F)cc1)C(=O)CN1C(=O)c2ccccc2S1(=O)=O do in these assays?
HIV Env fusion: -26; CSC inhib: 2; MT1-MMP act inh: 4; MT1-MMP act inh RFP: 8

Results for O=C(Nc1ccccc1)C1=C[C@H](c2csc3ccccc23)C[C@H](OCCCCO)O1 ?
HIV Env fusion: -2; PABP FP inh: -5; CSC inhib: -7; UUG fidelity: -11; MT1-MMP act inh: 9; Rce1 inhib: inactive; eIF4H FP inh: 5; MT1-MMP act inh RFP: -1

How did CCC(C)C(NC(=O)c1ccccc1NC(=O)c1ccco1)C(=O)NNC(=O)c1ccc(OC)cc1 (centres undefined) do in these assays?
HIV Env fusion: 1; PABP FP inh: 19; CSC inhib: 4; UUG fidelity: 0; MT1-MMP act inh: -1; Rce1 inhib: inactive; eIF4H FP inh: -3; MT1-MMP act inh RFP: -2

What do the screens show for `COc1ccc(-n2nnnc2SCC(=O)Nc2nc3c(s2)CCCC3)cc1`?
HIV Env fusion: inconclusive; PABP FP inh: 0; CSC inhib: 12; UUG fidelity: -7; MT1-MMP act inh: 1; Rce1 inhib: inactive; eIF4H FP inh: 3; MT1-MMP act inh RFP: -7

How did COc1ccccc1C(=O)NCCN1CCN(c2ccccc2)CC1 do in these assays?
HIV Env fusion: 9; PABP FP inh: 6; CSC inhib: -6; UUG fidelity: 3; MT1-MMP act inh: -2; Rce1 inhib: inactive; eIF4H FP inh: 1; MT1-MMP act inh RFP: -3

How did Nc1ncc(Br)cc1S(=O)(=O)NCCC(=O)Nc1cccc(Cl)c1 do in these assays?
HIV Env fusion: 59*; PABP FP inh: -6; CSC inhib: -5; MT1-MMP act inh: 1; Rce1 inhib: inactive; eIF4H FP inh: -2; MT1-MMP act inh RFP: -8
